Cruzain inh noDet: qHTS Assay for Promiscuous and Specific Inhibitors of Cruzain (without detergent). purified cruzain, Z-FR-AMC fluorescence, no detergent. 200,000 compounds, 2.3% hits. Potency, µM, for the others: max response, negative = inhibition, most hits filed as inhibitors. Cruzipain (Trypanosoma cruzi), P25779. AID 1476, 2009;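 note: plate controls were enzyme without inhibitor for no effect and buffer without enzyme for full effect; nearly all actives have a fitted effect of over 40% in size; top concentration of the series not given in the record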
Target sequence (P25779 123-467 limits assumed): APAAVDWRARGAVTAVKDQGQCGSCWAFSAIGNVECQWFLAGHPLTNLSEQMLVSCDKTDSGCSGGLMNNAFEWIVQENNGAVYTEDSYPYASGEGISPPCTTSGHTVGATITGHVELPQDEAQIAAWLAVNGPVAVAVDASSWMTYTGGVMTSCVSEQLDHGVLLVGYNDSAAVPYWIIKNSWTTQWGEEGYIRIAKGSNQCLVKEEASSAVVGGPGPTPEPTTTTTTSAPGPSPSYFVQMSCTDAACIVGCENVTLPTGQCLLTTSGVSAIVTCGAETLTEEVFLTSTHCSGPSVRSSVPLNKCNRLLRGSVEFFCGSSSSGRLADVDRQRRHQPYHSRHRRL
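Detergent-free condition (0.00005% Triton X-100) in acetate buffer pH 5.5 with DTT. 1.5 nM enzyme and compound were pre-mixed 15 min, then 2 uM Z-FR-AMC substrate added; reaction progress from fluorescence change between first and third reads (60 s).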
LASV entry inh: qHTS for Inhibitors of binding or entry into cells for Lassa Virus; Lassa virus pseudotype entry inhibition, cell reporter; control for the full effect not named in the record; Potency, µM (titrated, usually from 37.9 µM), inactives show at the top dose activity change, negative = inhibition, most hits filed as inhibitors; 300,000 compounds, 1.2% hits; AID 540256, 2011; active means well fitted inhibition curve with a large enough effect; inconclusive means small, poorly fitted or top-dose-only effect, or effect the other way; inactive means flat fitted curve, though single readings scatter; tested in HEK293 cells; note: % is set by controls: 0 for no effect and ±100 for the full control effect; nearly all actives have a fitted effect of over 50% in size; luciferase read-out
Cruzain inh Det: qHTS Assay for Promiscuous and Specific Inhibitors of Cruzain (with detergent); purified cruzain, Z-FR-AMC fluorescence, 0.01% Triton; Potency, µM, for the others: max response, negative = inhibition, usual class: inhibitors; 200,000 compounds, 0.43% hits; Cruzipain (Trypanosoma cruzi), P25779;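 note: plate controls were neutral wells for no effect and buffer without enzyme for full effect; nearly all actives have a fitted effect of over 40% in size; top concentration of the series not given in the record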
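Cysteine protease activity tested under reducing, mildly acidic conditions (100 mM sodium acetate pH 5.5, 5 mM DTT) plus 0.01% Triton X-100. Cruzain 1.5 nM; substrate Z-FR-AMC 2 uM; 15 min compound preincubation at room temperature.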
SARS PLP yeast: qHTS of Yeast-based Assay for SARS-CoV PLP | S. cerevisiae expressing SARS-CoV PLpro, growth rescue; control for the full effect not named in the record | Potency, µM (doses to about 32.9 µM), without a hit: top-dose activity, positive = growth rescue | 330,000 compounds, 0.19% hits | AID 485353, 2010; active means well fitted rising curve with a large enough effect; inconclusive means small, poorly fitted or top-dose-only effect; inactive means no such curve, though single readings can be large or run the other way; note: 0% is about no effect; nearly all actives have a fitted effect of over 55% in size; growth read by luminescence after 48 h
NS1 function inh: qHTS Assay for Inhibitors of Influenza NS1 Protein Function | 270,000 compounds, 0.4% hits | S. cerevisiae slowed by influenza A NS1, growth recovery by OD600 | Potency, µM (doses to about 46.1 µM), for the others: top-dose activity, positive = more growth; active means well fitted rising curve with a large enough effect; inconclusive means small, poorly fitted or top-dose-only effect; inactive means no such curve, though single readings can be large or run the other way; note: nearly all actives have a fitted effect of over 50% in size
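S. cerevisiae expressing influenza A NS1, grown in glucose, washed, then diluted 1:100 into pH 6.0 -URA galactose medium with 23 nl compound. Growth recovery read as OD600; NS1-free strain serves as control.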
MARV entry inh: qHTS for inhibitors of binding or entry into cells for Marburg Virus | 300,000 compounds, 1.8% hits | Marburg virus pseudotyped entry inhibition, cell reporter; control for the full effect not named in the record; about a third of the inactives were read at about 46 µM | AID 540276, 2011 | Potency, µM (highest dose often 37.8 µM), inactives show at the highest dose activity change, negative = inhibition, most hits filed as inhibitors; active = well fitted inhibition curve with a large enough effect; inconclusive = small, poorly fitted or top-dose-only effect, or effect the other way; inactive = flat fitted curve, though single readings scatter; tested in HEK293 cells; about a fifth of its hits are not listed in these tables; note: % is set by controls: 0 for no effect and ±100 for the full control effect; luciferase read-out
RE007 growth inh: qHTS Assay for Inhibitors of the HIV-1 protein Vpr; S. pombe RE007 Vpr strain, BacTiter-Glo ATP luminescence, 24 h; control for the full effect not named in the record; Potency, µM (highest dose often 92.2 µM), inactives show at the top dose activity change, negative = less growth; 360,000 compounds, 0.21% hits; AID 651644, 2012; active = well fitted falling curve with a large enough effect; inconclusive = small, poorly fitted or top-dose-only effect; inactive = no such curve, though single readings can be large or run the other way;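 note: % is set by controls: 0 for no effect and ±100 for the full control effect; nearly all actives have a fitted effect of over 50% in size; the assay follows cell death caused by Vpr and the record does not say whether a fall means rescue or toxicity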
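Fission yeast RE007 carrying one integrated HIV-1 vpr copy, seeded at OD 0.01 in PMG+AL medium with 23 nL pinned compound. Grown 24 h at 30 degrees; viability read by BacTiter-Glo luminescence after 5 min.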
2A StopGo: High Throughput Screening for Foot and Mouth Disease Virus Antivirals | AID 1159524, 2015 | 410,000 compounds, 1.2% hits | human cells with a luciferase reporter of 2A StopGo recoding; control for the full effect not named in the record | Potency, µM (highest dose often 57.9 µM), inactives show at the highest dose signal change, negative = less light; active = well fitted falling curve with a large enough effect; inconclusive = small, poorly fitted or top-dose-only effect; inactive = no such curve, though single readings can be large or run the other way; tested in HEK293T cells; note: % is set by controls: 0 for no effect and ±100 for the full control effect; nearly all actives have a fitted effect of over 45% in size; luciferase light after 4 h
* hit, by the source's call; ? = inconclusive; · = not tested or not shown; & = joins results of further samples; [ ] = dose if it differs, or a comment. Unless noted, calls come from the whole dose curve; as a rule, active = well fitted curve in the direction sought with a large enough effect; inconclusive = small, poorly fitted or top-dose-only effect, or another doubt; inactive = no such curve, though single readings can be large; an effect the other way counts as inactive or inconclusive. Potency is the fitted concentration of half-maximal effect.

mol	Cruzain inh noDet	LASV entry inh	Cruzain inh Det	SARS PLP yeast	NS1 function inh	MARV entry inh	RE007 growth inh	2A StopGo
O=C(CN1CCN(Cc2ccc3c(c2)OCO3)CC1)c1c[nH]c2ccccc12	-4%	-11%	-1.4%	0%	0%	?	8%	-10%
COc1cc(C(O)C(=O)O)ccc1O (stereo not given)	?	?	-2.8%	·	-10%	8%&8%&8%&8%&-11%&8%	-2%[18.4 µM]	-20%&-5%
COc1ccc(CCNC(=O)c2ccc(-c3ccc([N+](=O)[O-])cc3)o2)cc1OC	-2%	?	-9.1%	8%	-7%	?	-7%	18µM*
COc1ccc(NC(=O)c2c(NC(=O)c3ccc(Br)cc3)sc3c2CCCC3)cc1	1%	2%[46.1 µM]	-3.8%	·	·	·	·	?
COc1cccc(C(=O)N2N=C(c3ccccc3)CC2(O)C(F)(F)F)c1 (stereo not given)	-12%	4%	-6.5%	-29%	-19%	-27%	-8%	-28%
COc1ccc(CN(C(=O)CNC(=O)c2ccco2)C(C(=O)NCC2CCCO2)c2ccc(OC)c(OC)c2)cc1 (stereo not given)	·	?	·	0%	6%	-26%[46.1 µM]	6%	-1%
CC(C)(C)NCC(=Cc1ccccc1)C(=O)c1ccccc1	·	7.1µM*	·	·	·	7.9µM*	13%	8.9µM*
CCn1c(=S)sc2c(=O)n(CC(=O)Nc3cccc(OC)c3)c(C)nc21	·	·	·	-7%	-11%	·	-2%	-12%
CCC(=O)NC(=S)Nc1ccc(NC(=O)c2ccc([N+](=O)[O-])cc2)cc1	?	13%	-3.3%	-7%	23%	?	9%	-18%
Cc1c2cnn(CC(=O)N3CCC4(CC3)OCCO4)c(=O)c2c(C)n1Cc1ccccc1Cl	·	0%[46.1 µM]	·	-5%	15%	13%[46.1 µM]	3%	2%
Cc1ccc(NC(=O)CN2C(=O)C(C)Oc3ccccc32)nc1 (stereo not given)	5%	7%	3.3%	1%	-9%	-24%	12%	-11%
CCCOC(=O)c1ccc(-c2c(C)noc2-c2ccc(OC)cc2O)o1	8%	-20%	-17%	-12%	-100%	?	-16%	?
Cc1cc(C)cc(N2CCn3c2nc2c3c(=O)n(C/C=C/c3ccccc3)c(=O)n2C)c1	10%	7%[46.1 µM]	1.0%	·	·	·	·	-10%
Fc1cccc(Cc2noc(CN3CCCCC3c3ccccn3)n2)c1 (stereo not given)	·	·	·	1%	4%	-20%[46.1 µM]	1%	-14%
Cc1sc2nc(SCc3ccccc3)n(Cc3ccco3)c(=O)c2c1C	?	?	-0.1%	0%	?	?	0%	19%
CCOC(=O)c1ccc(-c2ccc(/C=N/NC(=O)CN(c3ccccc3Cl)S(C)(=O)=O)o2)cc1	11%	-14%	-10%	7%	-31%	?	-9%	?
CC(Cc1ccccc1)NC(=O)/C=C/c1ccc(Cl)cc1 (stereo not given)	-1%	?	-4.0%	-37%	-14%	-13%	12%	-4%
CCn1c(N)nc2c1c(=O)n(C)c(=O)n2C	2%	·	1.6%	-1%	-10%	-3%	-3%	-21%
COc1cccc(-n2nc(C(=O)Nc3ccc4c(c3)OCO4)c3ccccc3c2=O)c1	?	-19%	-0.3%	-3%	-4%	?	-4%	0%
Cc1csc2cc(-c3cccc([N+](=O)[O-])c3)c(-c3cccc([N+](=O)[O-])c3)c[n+]12	-16%	27%	-10%	2%	-2%	14%	-24%	7%

(further entries)
mol	Cruzain inh noDet	LASV entry inh	Cruzain inh Det	SARS PLP yeast	NS1 function inh	MARV entry inh	RE007 growth inh	2A StopGo
Cc1ccc(Cl)cc1NC(=O)CN1C(=O)c2ccccc2Sc2ncccc21	23%	15%[46.1 µM]	-3.2%	·	·	·	·	-19%
CCOC(=O)N1CCN(c2ccc([N+](=O)[O-])cc2)CC1	-18%	-5%	-8.3%	2%	-11%	-8%	-16%	-25%
COc1ccc(Cl)cc1C(=O)N1CCC2(CC1)CC(=O)c1ccccc1O2	·	-13%	·	-6%	·	0%	2%	?
CCOc1ccc(S(=O)(=O)N2Cc3ccccc3CC2C(=O)NCCCn2ccnc2)cc1 (stereo not given)	-20%	4%	-0.7%	?	-15%	8%&8%	0%	-18%
CC1(C)CC(=O)C=C(NCCN2CCN(C(=O)Nc3ccc(Cl)cc3)CC2)C1	13%	-12%	-4.7%	5%	-2%	-12%	-11%	-17%
CCOc1cc(C2C(C(N)=O)=C(C)Nc3ncnn32)cc(Br)c1O (stereo not given)	-6%	?	-1.2%	·	·	·	·	4%
Cc1cc(C(F)(F)F)n2nc(-c3cnn(C)c3C(F)(F)F)c(Cl)c2n1	0%	18%	-3.3%	5%	-3%	9%	22%	-12%
CCOc1ccc(C2CC(=O)n3nc(-c4ccc(C)cc4)nc3S2)cc1 (stereo not given)	-4%	15%[46.1 µM]	-2.9%	·	·	15%[46.1 µM]	·	3%
CC1CCCC(C(=O)O)N1C(=O)CCSSCCC(=O)N1C(C)CCCC1C(=O)O (stereo not given)	-22%	12%	2.0%	3%	8%	-14%[46.1 µM]	20%	3%
C/C(=N\NC(=O)CNc1cccc(C(F)(F)F)c1)c1ccc(Br)cc1	0%	-3%	-4.8%	-6%	-4%	1%	24%	8%
COc1cccc(-n2c(CCn3nc(C)c([N+](=O)[O-])c3C)n[nH]c2=S)c1	-15%	-3%	-0.3%	19%	8%	0%	11%	-12%
CCOc1ccc(NC(=O)c2cc(S(=O)(=O)N3CCC(C)CC3)cn2C)cc1	-6%	-2%[46.1 µM]	1.3%	·	·	·	·	-13%
COc1ccc2c(c1)c(CC(=O)O)c(C)n2Cc1ccc(Cl)cc1	?	-9%	-6.8%	·	?	?	·	·
COc1ccc(S(=O)(=O)N2CCN(c3ccc(F)cc3)CC2)cc1OC	·	·	·	-4%	3%	·	3%	-16%
Cc1nn(S(=O)(=O)c2cccc([N+](=O)[O-])c2)c(C)c1S(=O)(=O)N1CCOCC1	·	·	·	5%	-5%	·	0%	-3%
Cc1ccc(C(=O)N/C(=C\c2ccccc2)C(=O)NCC2CCCO2)cc1 (stereo not given)	-14%	?	1.0%	24%	9%	-17%	-4%	-10%
COc1ccc(OC)c(C(=O)CSc2nc3cccnc3n2C)c1	7%	-26%	-8.4%	-5%	4%	-3%[46.1 µM]	-12%	-6%
CCC(C)CCN1C(Nc2ccccc2)=NC[C@@H]1C (stereo not given in full)	·	·	·	-3%	-10%	·	-10%	-20%
O=C(CSc1ncn[nH]1)NNC(=O)c1ccccc1	·	23%	·	4%	·	?	8%	-5%
COc1ccc(C(=O)OCc2nnc(-c3ccccc3)o2)cc1S(=O)(=O)N1CCOCC1	·	12%	·	2%	·	?	3%	17%

(next part)
mol	Cruzain inh noDet	LASV entry inh	Cruzain inh Det	SARS PLP yeast	NS1 function inh	MARV entry inh	RE007 growth inh	2A StopGo
O=C(OCC(=O)N1CCCc2ccccc21)c1cc(Br)ccc1O	·	16%	·	-1%	·	?	2%	-1%
Cc1ccc(C(=O)Nc2ccc(C(=O)O)cc2)cc1S(=O)(=O)Nc1ccccc1	-9%	-4%[46.1 µM]	-3.5%	·	·	·	·	-2%
Nc1nc(-c2cccnc2)nn1C(=O)CCc1ccccc1	·	?	·	·	-11%	-26%	6%	-6%
CCCCN(CCCC)CC(O)COc1ccccc1Br (stereo not given)	6%	?	2.0%	2%	4%	?	-18%	-23%
Cc1cc(C)n2nc(S(=O)(=O)N(CC(C)C)CC(C)C)nc2n1	9%	·	3.4%	-4%	-8%	·	0%	8%
Oc1ccc2ccccc2c1CN1CC=C(c2ccccc2)CC1	·	-5%	·	0%	·	15%[46.1 µM]	-17%	6%
Cc1nn(C)c2c1c(-c1ccccc1)cc(=O)n2Cc1ccccc1F	-19%	5%[46.1 µM]	-3.1%	·	·	·	·	-15%
COc1ccccc1CNC(=O)c1ccccc1C(=O)NC(C)(C)C(=O)NCc1ccccc1OC	·	·	·	2%	-7%	·	6%	-10%
O=C(CSc1nc2ccccc2o1)N1N=C(c2cccs2)CC1c1ccc(F)cc1 (stereo not given)	?	-10%	-13%	-8%	10%	-8%	4%	?
CCCCCCC(C)n1[nH]c(=O)cc1N (stereo not given)	·	2%	·	0%	?	1%	4%	-6%
CCOC(=O)C1=C(N)OC2=C(C(=O)CC(C)(C)C2)C1c1cc(CSc2nnnn2C)cs1 (stereo not given)	·	-12%	·	0%	·	0%	-14%	-19%
COc1ccc(C(CC(=O)O)NC(=O)Nc2ccccc2)cc1OC (stereo not given)	·	8%	·	3%	·	1%[46.1 µM]	7%	1%
COc1ccc(C(=O)C2CCCN(C/C=C/c3ccccc3OC)C2)c(OC)c1 (stereo not given)	·	-12%[46.1 µM]	·	-1%	-7%	?	-19%	-8%
O=c1c2ccccc2nc(-c2ccco2)n1-c1nccs1	-12%	?	-1.6%	-1%	-4%	?	-10%	-19%
O=C(Nc1cccc(NC(=O)c2ccc([N+](=O)[O-])o2)c1)c1ccco1	·	?	·	-57%	-10%	?	-22%	27%
CCOC(=O)c1scc(-c2ccccc2)c1S(=O)(=O)Nc1cc(OC)cc(OC)c1	1%	-25%[46.1 µM]	-8.8%	·	·	·	·	32%[activator]
CC1(c2cccc(Br)c2)NC(=O)N(CC(=O)N2CCc3ccccc32)C1=O (stereo not given)	·	-19%	·	5%	·	?	2%	-22%
Cc1cc(C)c2sc(N3CCN(C(=O)C4CC4)CC3)nc2c1	?	13%[46.1 µM]	-5.6%	·	·	·	·	41%[activator]
Cc1cccc(N=C2NC(=O)/C(=C\c3cccs3)S2)c1	32µM*	?	-7.0%	-14%	13%	?	-15%	9%
COc1ccccc1C(=O)Nc1ccc2c(c1)CCCN2C(=O)c1cccs1	·	?	·	-66%	-28%	?	-14%	0%
COc1ccc(N(Cc2ccccc2)C(=O)CSc2nnc(Cn3nnc4ccccc43)o2)cc1	4%	?	5.5%	-10%	16%	?	-3%	?

Screening data as filed in PubChem BioAssay.
